D2 agonist – human D2 receptor agonism in beta-arrestin assay; DiscoveRx PathHunter D2 beta-arrestin, luminescence, 90 min; 100% = 57 uM dopamine signal; P14416; AID 624465; actives 0.084% (n = 360,000); activation, % (no concentration beside the values); in the data active = activation above about 40%; inconclusive = about 15% to 40%; inactive = below about 15%; note: compound concentration not given in the record; the text of the record calls up to 30% inactive
Target sequence (P14416 whole entry, looked up): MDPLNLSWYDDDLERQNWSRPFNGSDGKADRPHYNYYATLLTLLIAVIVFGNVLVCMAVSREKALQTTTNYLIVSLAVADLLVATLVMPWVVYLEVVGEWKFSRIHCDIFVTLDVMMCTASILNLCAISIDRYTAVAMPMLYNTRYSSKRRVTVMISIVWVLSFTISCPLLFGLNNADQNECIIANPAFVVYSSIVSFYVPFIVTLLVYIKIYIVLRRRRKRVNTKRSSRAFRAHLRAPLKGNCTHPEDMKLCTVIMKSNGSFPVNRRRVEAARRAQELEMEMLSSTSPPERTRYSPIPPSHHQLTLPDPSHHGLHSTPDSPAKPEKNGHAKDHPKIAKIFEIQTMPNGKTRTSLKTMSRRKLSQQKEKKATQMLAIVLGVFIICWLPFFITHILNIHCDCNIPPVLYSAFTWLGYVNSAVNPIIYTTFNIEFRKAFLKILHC
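DiscoveRx PathHunter D2 beta-arrestin cells (2,100/well) attached overnight, then compound-stimulated 90 min at 37 C in HBSS/10 mM HEPES/0.1% Tween-20 buffer; beta-galactosidase complementation read by luminescence after 1 h at ambient temperature. Dopamine 57 uM final (EC100) as control.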
TRPML1 inh – inhibitors of human TRPML1 channel; Q9GZU1; TRPML1-inducible cells, Ca2+ dye fluorescence, FDSS; active compounds read low; inhibition of EC80 agonist-evoked calcium signal; activity change, negative = inhibition, % (concentration not given with the values); actives 0.02% (n = 390,000); AID 624415; in the data active means activity change below about -50%; inconclusive means about -30% to -50%; inactive means above about -30%;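 note: stimulus is agonist 54-4 at its EC80 concentration; % is set by controls: 0 for no effect and ±100 for the full control effect; the text of the record puts the active cut at -80%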
Target sequence (Q9GZU1 whole entry, looked up): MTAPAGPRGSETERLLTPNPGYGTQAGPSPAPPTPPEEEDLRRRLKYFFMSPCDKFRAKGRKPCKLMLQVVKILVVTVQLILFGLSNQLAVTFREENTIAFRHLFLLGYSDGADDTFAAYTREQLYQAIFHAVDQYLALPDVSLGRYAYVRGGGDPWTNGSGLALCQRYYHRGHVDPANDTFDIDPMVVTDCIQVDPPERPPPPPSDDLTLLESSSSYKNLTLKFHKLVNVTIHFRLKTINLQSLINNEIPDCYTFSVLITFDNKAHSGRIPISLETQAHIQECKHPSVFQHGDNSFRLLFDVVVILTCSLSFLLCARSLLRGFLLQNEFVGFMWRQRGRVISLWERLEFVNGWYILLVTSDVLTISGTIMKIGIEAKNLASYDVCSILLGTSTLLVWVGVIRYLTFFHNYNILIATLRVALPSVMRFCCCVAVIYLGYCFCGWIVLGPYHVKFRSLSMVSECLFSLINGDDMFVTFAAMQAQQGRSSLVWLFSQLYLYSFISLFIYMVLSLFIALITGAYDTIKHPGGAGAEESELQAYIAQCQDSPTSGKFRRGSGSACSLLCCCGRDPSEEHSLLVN
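Calcium fluorescence in TRPML1-DL cells induced overnight with Tet: a 110 s read after compound pin addition, then a 110 s antagonist read after challenge with 54-4 at 4 uM final (EC80).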
Six1-Eya2 blk – blocks human Six1 binding to Eya2; Q15475+O00167; AlphaScreen GST-Six1/His-Eya2 binding, biochemical; active compounds read low; control for the full effect not named in the record; activity change, % (test concentration not listed); actives 0.56% (n = 360,000); AID 651725; in the data active = activity change below about -65%; inconclusive = about -30% to -65%; inactive = above about -30%; note: % is set by controls: 0 for no effect and ±100 for the full control effect
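Homogeneous AlphaScreen proximity assay pairing GST-Six1 with His-tagged Eya2 (added as 5X mix: 250 nM and 500 nM) in 50 mM Tris pH 8.0, 300 mM NaCl, 1 mM TCEP. Glutathione donor and nickel acceptor beads; 1 h, 37 °C, dark.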
TRPML1 agonist – human mucolipin-1 channel agonism; Q9GZU1; TRPML1-expressing cells, Ca2+ dye fluorescence, FDSS; host cell line not named in the record; reference of the full effect not given here; activation, % (test concentration not listed); actives 0.12% (n = 410,000); AID 624414; in the data active = activation above about 50%; inconclusive = about 30% to 50%; inactive = below about 30%; note: 0% is about no effect; the text of the record puts the active cut at 80%
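Tetracycline-induced TRPML1-DL cells are seeded and incubated overnight before loading with a no-wash Ca2+ dye and quencher. Agonist activity is taken from the 110 s fluorescence read following compound pin-transfer on an FDSS, before EC80 54-4 challenge.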
PINK1 expr mod – modulators of PINK1 expression; PINK1 immunofluorescence, high-content cytometry, 24 h; actives 0.2% (n = 410,000); Potency, µM (doses to about 76.6 µM), for inactives: top-dose activation (PINK1 increase), actives largely listed as activators; AID 624263; active = well fitted activation curve with a large enough effect; inconclusive = small, poorly fitted or top-dose-only effect; inactive = flat fitted curve, though single readings scatter; cell line not stated here;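 note: potency is the fitted concentration of half-maximal effect; % of control where 0% means no effect; nearly all actives have a fitted effect of over 65% in size; a mitochondrial uncoupler was the plate control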
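Compound titrations (5 concentrations, 24 h) on a stable cell line; DMSO and CCCP controls. Endpoint: fixed-cell PINK1 immunofluorescence with mitochondrial, cell and nuclear markers, scanned by microplate cytometer.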
CtBP-E1A blk – inhibitors of CtBP/E1A interaction | AlphaScreen GST-E1A/His-CtBP binding, 1536-well; active compounds read low; control for the full effect not named in the record | activity change, % (concentration not given with the values) | actives 0.49% (n = 340,000) | AID 651724; in the data active means activity change below about -65%; inconclusive means about -30% to -65%; inactive means above about -30%; note: % is set by controls: 0 for no effect and ±100 for the full control effect
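Protein mix (5X: 125 nM each GST-E1A, His-CtBP) was incubated with pinned compound 2 h at 37 deg C in dark, in 50 mM Tris pH 8.0 buffer with 300 mM NaCl. Glutathione donor and nickel acceptor beads followed; AlphaScreen signal read after 1 h.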
* hit, by the source's call; ? = inconclusive; . = not tested or not shown; & = joins results of further samples; [ ] = another dose, or the depositor's remark.

SMILES	D2 agonist	TRPML1 inh	Six1-Eya2 blk	TRPML1 agonist	PINK1 expr mod	CtBP-E1A blk
Cc1nn(-c2ccccc2)c2sc(C(=O)Nc3ccc(Br)cc3)cc12	.	-4	.	-0.5	0.8%	.
COCCn1c(SC(C)C(=O)Nc2ccc(N3CCOCC3)cc2)nnc1-c1ccncc1 (centres undefined)	3.8	11	5	0.2	-0.7%	4
Cc1cccc(NC(=O)CN2C(=O)c3ccccc3C2=O)c1C	2.0	18	-2	3.9	1.7%	.
O=C(COc1ccc(S(=O)(=O)N2CCOCC2)cc1Cl)NCCN1CCOCC1	0.6	16	2	0.4	0.0%	4
COC(=O)c1csc(S(=O)(=O)N2CCCCC2)c1OC	-2.3	-26	-1	-0.7	2.9%	.
OC(COc1ccc(Cl)cc1)CN1CCN(c2cccc(Cl)c2)CC1 (centres undefined)	2.9	4	-8	-1.3	?	-12
O=C(NC1CCS(=O)(=O)C1)/C(=C\c1ccc(F)cc1)NC(=O)c1ccccc1 (centres undefined)	0.6	15	7	0.4	-1.5%	14
Cc1cc(-c2csc3nc[nH]c(=S)c23)cc(C)c1C	-2.4	-12	-10	0.8	5.4%	3
COc1ccc(-c2nc3ccccc3s2)cc1NC(=O)COc1ccccc1C	.	-10	.	0.5	0.1%	.
COc1cccc(CNS(=O)(=O)c2c(C(=O)N3CCCC3)c(C)n(C)c2C)c1	2.8	-9	-1	0.8	0.7%	0
CN(C)c1ccc(C(=O)OCc2ccc(Br)cc2)cc1	-2.5	-9	5	0.5	7.5%	-12
CC1(c2ccc(Cl)cc2)CC(C)(C)N(C(=O)c2cccc(F)c2)c2ccccc21 (centres undefined)	.	-7	.	0.4	1.2%	.
CC(c1ccccn1)N(Cc1ccco1)C(=S)Nc1cccc(F)c1 (centres undefined)	0.0	?	-1	0.5	0.2%	-1
CC1(C)CSC(C)(C)C(=O)N1	-6.9	2	8	0.7	0.1%	8
CCCCCCC(=O)Nc1nc(C)c(-c2csc(Nc3cccc(OC)c3)n2)s1	-2.0	2	-2	-0.1	3.2%	-3
CN(Cc1ccc(Cl)cc1Cl)C(=O)C1CC(=O)N(Cc2ccco2)C1 (centres undefined)	-1.0	32	1	-0.2	-0.4%	-2
CCN(CC)c1ccc(C(=O)Nc2ccccc2)cc1[N+](=O)[O-]	-4.9	2	-6	2.3	0.3%	-19
CC1Cc2cc(/C=C3/SC(=S)NC3=O)ccc2O1 (centres undefined)	3.3	-6	-18	0.2	-0.7%	-24
CC(C)Sc1cc(N2CCOCC2)nc(-c2ccc(Cl)cc2)n1	-0.1	17	15	-0.1	11%	2
N#CCC(=O)N/N=C/c1cc([N+](=O)[O-])ccc1N1CCCC1	-5.0	13	-7	-0.7	1.3%	-8
CN(C)c1ncc(CN2CCC(C(=O)Nc3ccc(-n4cccn4)cc3)CC2)s1	-1.2	0	-7	0.3	0.1%	4
O=C(NC1CC1)c1ccc(NS(=O)(=O)c2ccccc2)cc1	-9.1	13	4	0.8	0.4%	-2
CN(N=Cc1cccc2cccnc12)c1ccc([N+](=O)[O-])cc1[N+](=O)[O-]	-0.5	24	-1	-0.1	?	-8
COc1ccc(-c2nc(-c3ccc(O)cc3O)cs2)cc1OC	6.6	18	-26	0.0	-1.8%	-24
CCc1cc(-c2nc(N)ncc2-c2csc(C)n2)c(O)cc1OC	-0.3	-15	-3	0.4	-0.6%	.
Cn1ncc(C(=O)Nc2ccc(OC(F)(F)F)cc2)c1-n1cccc1	0.1	22	-14	0.4	5.0%	1
CCC(C)n1c(SCC(=O)NC(=O)c2cccn2C)nc2ccccc2c1=O (centres undefined)	3.0	-9	-20	1.3	1.4%	-16
O=C(/C=C/c1cccs1)c1ccc(NC(=O)c2ccccc2F)cc1	-0.1	5	0	-0.1	8.3%	7
CC(=O)Nc1nc(CC(C)C)cc2c1c(=O)oc1ccccc12	-1.8	13	0	-0.4	0.2%	11
O=C(CNS(=O)(=O)c1ccccc1)N1CCc2ccccc2C1	-1.6	20	1	0.3	-2.0%	-6
O=C1NC2(CCCCCC2)C(=O)N1Cc1ccc([N+](=O)[O-])cc1	-0.7	11	3	1.4	-0.3%	0
O=C(Cn1ccn(-c2ccc(F)cc2)c(=O)c1=O)Nc1ccc(F)cc1	.	-11	.	0.2	1.6%	.
COc1cccc(Nc2nc(C(N)c3ccccc3)cs2)n1 (centres undefined)	-4.4	.	-28	-0.6	12%	-27
Cc1ccc(Cl)cc1Nc1nc(-c2cccnc2)cs1	-7.7	-9	-10	1.4	-1.5%	-17
CN(Cc1ccccc1)CC(O)COc1ccc(CNCCc2cccnc2)cc1 (centres undefined)	-3.4	-8	2	-0.8	1.5%	.
Clc1ccc(-c2nnc(-c3ccccc3)c(-c3c[nH]c4ccccc34)n2)cc1	0.9	-1	11	-0.3	3.0%	6
CCCc1[nH]nc2c1C(c1ccc(OC(=O)N3CCOCC3)cc1)C(C#N)=C(N)O2 (centres undefined)	-1.9	-3	2	1.1	.	2
Cc1ccc(-n2ncc(Br)c(Br)c2=O)cc1	-5.0	-4	-6	0.2	1.0%	23
Cn1cc(S(=O)(=O)Nc2ccc(Oc3ccccc3)cc2)c(=O)n(C)c1=O	-3.9	-15	-9	0.5	1.9%	-5
O=c1ccnc(SCCC(F)=C(F)F)[nH]1	-0.8	2	-1	0.6	0.1%	3

Among those listed so far, four contain a nitro group on carbon.
SMILES	D2 agonist	TRPML1 inh	Six1-Eya2 blk	TRPML1 agonist	PINK1 expr mod	CtBP-E1A blk
CCN(CC)c1ccc(C(=O)Nc2ccccc2)cc1[N+](=O)[O-]	-4.9	2	-6	2.3	0.3%	-19
N#CCC(=O)N/N=C/c1cc([N+](=O)[O-])ccc1N1CCCC1	-5.0	13	-7	-0.7	1.3%	-8
CN(N=Cc1cccc2cccnc12)c1ccc([N+](=O)[O-])cc1[N+](=O)[O-]	-0.5	24	-1	-0.1	?	-8
O=C1NC2(CCCCCC2)C(=O)N1Cc1ccc([N+](=O)[O-])cc1	-0.7	11	3	1.4	-0.3%	0

Later entries.
SMILES	D2 agonist	TRPML1 inh	Six1-Eya2 blk	TRPML1 agonist	PINK1 expr mod	CtBP-E1A blk
COc1cc(C(=O)NNC(=O)Nc2ccc([N+](=O)[O-])cc2)cc(OC)c1OC	-2.4	-10	109	0.5	4.8%	-25
CCCOc1ccc(C(=O)O)cc1	-0.3	1	3	1.1	0.1%	1
COC(=O)CCN1CCN(S(=O)(=O)c2ccc3c(c2)OCCO3)CC1	-3.6	-1	-1	0.4	0.1%	.
CN(CC(=O)NC(=O)NC1CCCCC1)CC(=O)Nc1ccc(OC(F)(F)F)cc1	-0.8	6	7	1.3	2.8%	9
CCOC(=O)C1=C(C)NC(SC)=NC1c1ccccc1 (centres undefined)	-2.5	9	4	-0.6	-0.3%	0
COc1ccc(NC(=O)NNC(=O)c2ccc(Cl)cc2Cl)cc1OC	-6.1	13	-2	-0.7	0.1%	0
CCOC(=O)c1nnc(-c2ccc(C)cc2)nc1Oc1ccccc1Cl	-4.0	-3	13	3.5	-0.7%	-1
CCOC(=O)c1c(NC(C)=O)sc2c(O)c(CN3CCN(CC)CC3)ccc12	0.0	-15	-4	0.1	-1.5%[38.3 µM]	25
Cn1c(N)c(C(=O)COC(=O)c2cc(S(=O)(=O)N3CCOCC3)ccc2F)c(=O)n(C)c1=O	-0.8	23	?	0.2	-2.8%	-23
COc1ccc(CCNC(=O)COC(=O)c2cnc(Cl)c(Cl)c2)cc1	-0.7	12	-2	-0.4	-3.1%	1
CN(C)S(=O)(=O)N(CC(=O)NCCSCc1cccc(Cl)c1)c1ccccc1	.	10	.	1.1	-0.2%	.
CC1=C(C(N)=O)C(c2cccs2)n2nc(-c3cccc(C)c3)nc2N1 (centres undefined)	-0.7	-1	3	-0.8	0.1%	1
COc1ccccc1N1C(=O)C2C(c3ccccc3F)NN(C(=O)c3ccc(C)cc3)C2C1=O (centres undefined)	-2.6	-14	7	0.3	-0.7%	0
COc1cc(Cl)c(S(=O)(=O)NCCCn2ccnc2)cc1Cl	-0.8	-4	1	0.0	0.2%	-14
COc1ccc(OC)c(NS(=O)(=O)c2ccc(-n3cccn3)cc2)c1	-5.8	15&-10	0	0.7&0.1	6.8%&6.1%	-1
CCOC(=O)CSc1nc2ccccc2c(=O)n1CC(C)C	6.5	12	8	0.3	1.3%	.
COc1ccc(C)cc1NC(=O)C(OC(=O)c1ccc(Cl)c(S(=O)(=O)N(C)c2ccccc2)c1)c1ccccc1 (centres undefined)	-2.2	-3	9	0.2	1.2%	1
CCn1c(CNC(=O)Cc2ccc(OC)cc2)n[nH]c1=S	5.1	11	8	-0.6	0.8%	6
Cc1ccccc1NC(=O)C1CCCN(c2nnc(N3CCCC3=O)s2)C1 (centres undefined)	0.2	8	-3	0.0	-0.4%	-3
CCN1CCN(C(=O)Cn2nc(-c3ccc(Cl)cc3)ccc2=O)CC1	-1.8	4	1	-0.8	-2.8%	3
COc1ccc(-c2nc(SCc3cc(=O)c4cc(C)ccc4[nH]3)n[nH]2)cc1	.	4	.	-0.4	0.8%	.
S=C(NCCc1cnc[nH]1)NC1CCCC1	-1.0	18	6	0.9	-2.0%	.
CCc1nc2ccc(C(=O)NCCOc3ccc(OC)cc3)cn2c1N(C)Cc1nccn1C	-4.6	16	-4	-0.3	-0.8%	1
O=C(OCc1ccc(Cl)c(Cl)c1)c1cnccn1	-4.4	-6	4	-0.6	-0.4%	-3
CC(C)CC(c1nnnn1C(C)C)N1CCN(C(=O)c2ccco2)CC1 (centres undefined)	-2.8	-4	5	0.4	-0.1%	4
O=C(c1ccc(F)cc1)N1CCN2C(=O)c3ccccc3C12c1ccc(Cl)cc1 (centres undefined)	-4.7	14	-6	0.6	3.9%	-14
CC1CCCC(C)N1C(=O)CSc1nnc(CSc2ncccn2)n1C (centres undefined)	-0.1	-6	4	-0.2	-4.5%[38.3 µM]	15
NC(=O)C1(NC(=O)[C@@H]2CC3(CC(c4cccc(NC(=O)[C@@H]5CCC(=O)N5)c4)=NO3)CN2C(=O)c2cnccn2)CC1 (some centres undefined)	-0.9	2	8	-0.8	-0.8%	4
CCCCn1c(N)c(N(CC)C(=O)C2CCC2)c(=O)[nH]c1=O	-7.2	-5	3	0.5	-1.0%	-5
COC(=O)C1=CN(c2ccc(F)cc2)C=C(C(=O)OC)C1c1cccc([N+](=O)[O-])c1	-6.2	45	-16	2.2	1.9%	?
CN(Cc1ccccc1)C(=O)COC(=O)c1ccc(-n2cnnn2)cc1	-4.5	-5	7	0.6	-0.3%	-1
CNc1ccc(Br)cc(C(=O)/C=C/c2cc(OC)ccc2OC)c1=O	-3.5	11	-3	1.9	-0.6%	-2
Cc1ccc(S(=O)(=O)N2CCCC(C(=O)NCCc3ccc(Cl)cc3)C2)cc1 (centres undefined)	-2.1	23	1	0.5	-0.2%	2
Cc1cc(Nc2c(C)n(C)n(-c3ccccc3)c2=O)n2c(nc3ccccc32)c1C#N	1.5	3	-1	1.2	-2.1%	-2

Compound activity: PubChem, National Center for Advancing Translational Sciences (NCATS)
